TRPML1 inh: inhibitors of human TRPML1 channel. TRPML1-inducible cells, Ca2+ dye fluorescence, FDSS; active compounds read low; inhibition of EC80 agonist-evoked calcium signal. Q9GZU1. 0.02% of 390,000 active. AID 624415. activity change, negative = inhibition, % (concentration not given with the values); in the data active means activity change below about -50%; inconclusive means about -30% to -50%; inactive means above about -30%;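 note: stimulus is agonist 54-4 at its EC80 concentration; % is set by controls: 0 for no effect and ±100 for the full control effect; the text of the record puts the active cut at -80%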
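TRPML1-DL cells, Tet-induced overnight (~16 h, 37 °C) at 1,500 cells/well, were loaded with Ca8 no-wash dye plus quencher for 45-90 min at room temperature. Compounds were pinned during FDSS kinetic reading; agonist 54-4 at EC80 (4 uM final) then added.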
Sfp PPTase inh: inhibitors of Bacillus subtilis Sfp phosphopantetheinyl transferase. Potency, µM, without a hit: max response, negative = inhibition, hits mostly inhibitors. Biochemical Sfp PPTase activity, qHTS. 3.5% of 310,000 active; active = well fitted inhibition curve with a large enough effect; inconclusive = small, poorly fitted or top-dose-only effect, or another doubt; inactive = no such curve, though single readings can be large or run the other way;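 note: the enzyme is Sfp with the accession as filed and its product quenches rhodamine fluorescence; potency is the fitted concentration of half-maximal effect; 0% = enzyme reaction without inhibitor and -100% = no enzyme wells; top concentration of the series not given in the record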
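Compounds were incubated with enzyme (final 15 nM) for 15 min at room temperature before substrate addition started the reaction. Fluorescence at 525 nm excitation, 598 nm emission was recorded immediately and after 30 minutes.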
TRPV1 PAM: enhances activation of the human vanilloid receptor TRPV1 | TRPV1-expressing cells, Fluo-8 calcium influx, capsaicin EC20 potentiation; host cell line not named in the record; control for the full effect not named in the record | potentiation, % at 8.33 µM | 0.02% of 320,000 active | AID 540277; active means potentiation above 80%; inconclusive means 30% to 80%; inactive means below 30%; note: 0% is about no effect
Target sequence (Q8NER1 whole entry, looked up): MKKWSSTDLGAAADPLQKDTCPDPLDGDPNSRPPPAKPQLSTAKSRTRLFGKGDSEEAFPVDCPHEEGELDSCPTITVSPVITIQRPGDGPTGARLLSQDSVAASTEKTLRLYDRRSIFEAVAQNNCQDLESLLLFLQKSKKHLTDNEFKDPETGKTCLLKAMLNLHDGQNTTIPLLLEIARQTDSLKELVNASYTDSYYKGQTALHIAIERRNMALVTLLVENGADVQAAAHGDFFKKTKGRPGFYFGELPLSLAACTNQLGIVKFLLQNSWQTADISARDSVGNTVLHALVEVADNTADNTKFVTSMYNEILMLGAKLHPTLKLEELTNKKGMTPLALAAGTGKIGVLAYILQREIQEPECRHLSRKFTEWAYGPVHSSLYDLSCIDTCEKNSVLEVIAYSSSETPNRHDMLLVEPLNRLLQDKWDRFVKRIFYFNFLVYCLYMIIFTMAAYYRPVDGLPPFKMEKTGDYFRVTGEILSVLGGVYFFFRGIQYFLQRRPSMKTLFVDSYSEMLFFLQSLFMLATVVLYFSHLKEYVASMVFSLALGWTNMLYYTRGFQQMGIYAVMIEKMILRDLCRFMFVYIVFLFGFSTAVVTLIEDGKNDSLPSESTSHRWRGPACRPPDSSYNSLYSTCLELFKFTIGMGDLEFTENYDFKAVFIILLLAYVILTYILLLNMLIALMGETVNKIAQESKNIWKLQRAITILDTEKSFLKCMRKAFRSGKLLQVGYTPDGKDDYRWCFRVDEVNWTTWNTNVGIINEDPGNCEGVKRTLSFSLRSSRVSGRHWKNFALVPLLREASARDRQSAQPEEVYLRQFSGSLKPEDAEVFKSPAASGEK
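TRPV1-expressing cells were cultured overnight at 35.5C and loaded with Fluo-8 calcium dye for 40 to 90 min at room temperature. After a 10 s baseline, compound was added and calcium influx was read kinetically for 3 min (ex 480/em 520 nm).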
gsp ag: agonists of gsp mutant (McCune-Albright syndrome) | gsp mutant cells, cAMP HTRF, 30 min; control for the full effect not named in the record | 0.13% of 340,000 active | Potency, µM (top dose mostly 76.9 µM), for inactives: at the highest dose activation (cAMP increase), actives largely listed as activators; active = well fitted activation curve with a large enough effect; inconclusive = small, poorly fitted or top-dose-only effect, or another doubt; inactive = no such curve, though single readings can be large or run the other way; cell line not stated here;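 note: phosphodiesterase inhibitor Ro 20-1724 added with compounds to block cAMP breakdown; potency is the fitted concentration of half-maximal effect; nearly all actives have a fitted effect of over 60% in size; about a fifth of the inactives were tested at one dose only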
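Cells stably selected in G418 were plated at 2000/well, grown 16-24 hr, then given compounds in DMSO with the PDE inhibitor […] (300 uM solution added) for 30 min at 37C; cAMP was read by HTRF.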
ClpP mod: qHTS Assay for Activators of ClpP; 1.9% of 340,000 active; AID 651965, 2013; Potency, µM (highest dose often 57.5 µM), inactives show top-dose activity change, negative = active; purified B. subtilis ClpP, FRET peptide cleavage, 20 min; ATP-dependent Clp protease proteolytic subunit (Bacillus subtilis (strain 168)), P80244; active = well fitted falling curve with a large enough effect; inconclusive = small, poorly fitted or top-dose-only effect; inactive = no such curve, though single readings can be large or run the other way; note: potency is the fitted concentration of half-maximal effect; the source files actives as falling curves though it sought activators and does not explain the sign; nearly all actives have a fitted effect of over 65% in size; many hits overshoot -100%
Target sequence (P80244 whole entry, looked up): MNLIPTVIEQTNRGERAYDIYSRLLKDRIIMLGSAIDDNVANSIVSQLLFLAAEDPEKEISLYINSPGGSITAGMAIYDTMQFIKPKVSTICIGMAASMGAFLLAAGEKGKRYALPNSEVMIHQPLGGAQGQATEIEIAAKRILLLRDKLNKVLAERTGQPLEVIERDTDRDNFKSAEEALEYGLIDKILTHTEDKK
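Buffer: 100 mM Tris/HCl pH8, 100 mM KCl, 0.05% low protease BSA, 2.5% glycerol, 0.01% Tween-20. ClpP 10 microg/mL final; 20 min RT; delta FRET normalized to ADEP and DMSO controls.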
Menin-MLL FL inh: menin-MLL binding inhibition, fluorescein peptide | Fluorescence polarization, fluorescein-MLL peptide displacement from menin | FP activity change, % at 61.4 µM | 290,000 tested, under 10 active | AID 1766; inconclusive = falling polarisation curve, or a change in total fluorescence; inactive = total fluorescence flat and polarisation flat or rising; no compound was filed as active; the % refers to the polarisation; negative = inhibition;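 note: % of control where 0% means no effect; inhibitors lower the polarisation; unlabelled MLL peptide was the positive control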
gsp antagonist: antagonists of gsp mutant (McCune-Albright syndrome). gsp-mutant cells, cAMP HTRF, 30 min; control for the full effect not named in the record. Potency, µM (series often up to 76.9 µM), for inactives: top-dose activity change, negative = inhibition, actives largely listed as inhibitors. 0.4% of 340,000 active; active = falling curve of any shape with a large fitted effect; inconclusive = falling curve, mostly with a smaller effect; inactive = flat or rising curve; cell line not stated here;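 note: intracellular cAMP measured with PDE inhibitor Ro 20-1724 present during compound exposure; potency is the fitted concentration of half-maximal effect; % is set by controls: 0 for no effect and ±100 for the full control effect; nearly all actives have a fitted effect of over 65% in size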
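HTRF cAMP measurement after 30 min RT detection following 30 min, 37C compound treatment alongside […] (added as 300 uM solution) in G418-selected cells seeded at 2000/well and grown 16–24 h.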
Numbers without * were called inactive; ? = inconclusive; . = not tested or not shown; & = joins results of further samples; [ ] = remark or other dose. Rows were taken by chance. Share with any hit: about 4.9%.

Abbreviations – A = TRPML1 inh; B = Sfp PPTase inh; C = TRPV1 PAM; D = gsp ag; E = ClpP mod; F = Menin-MLL FL inh; G = gsp antagonist
> CC/C(=N\NC(=S)Nc1cc(C)ccc1C)c1ccc(OC(F)F)cc1
  A: 1; B: ?; C: 3; D: -27%; E: 1.4%; F: 8.1; G: -10%

> Cc1c(Cc2ccccc2)c(=O)oc2c(O)c(O)ccc12
  A: -24; B: -22%; C: 4; D: 6%; E: .; F: -1.0; G: 11%

> CCOc1ccc(Cl)cc1S(=O)(=O)N1CCCC1
  A: 9; B: 18%; C: -7; D: -18%; E: -0.3%; F: 1.8; G: -5%

> O=C(/C=C/c1ccc(Br)cc1)c1ccc(NC2=NCCCS2)cc1
  A: 13; B: 40µM*; C: 11; D: -83%[inhibitor]; E: -3.2%; F: 6.6; G: 4%

> COc1ccccc1Oc1cn[nH]c1-c1ccc(O)cc1O
  A: 0; B: 9%; C: 1; D: ?; E: -8.4%; F: 0.5; G: 0%

> O=C(Cn1nc(C(=O)O)c2ccccc2c1=O)Nc1ccc2c(c1)OCO2
  A: 1; B: 6%; C: 3; D: -8%[15.4 µM]; E: .; F: 2.1; G: -4%

> CCN(CC)C(=O)COCc1cc(-c2ccc3c(c2)OCO3)on1
  A: -4; B: 11%; C: 5; D: -22%; E: -15%; F: -2.8; G: -11%

> COC(=O)C1=NN(c2ccc(OC)cc2)C2C(=O)N(c3ccccc3OC)C(=O)C12 (stereo not given)
  A: 11; B: ?; C: 25; D: -4%[15.4 µM]; E: 0.0%; F: 2.1; G: -14%

> Cc1ccc(Cl)cc1-n1c(=O)cc(N2CC(C)OC(C)C2)[nH]c1=O (stereo not given)
  A: -4; B: ?; C: 26; D: -6%; E: -0.2%; F: 4.1; G: 0%

> CCOC(=O)Cn1ncc2c3ccccc3n(CC(=O)OCC)c2c1=O
  A: .; B: 6%; C: 1; D: 19%; E: 3.7%; F: -5.7; G: -13%

> COc1cc(OC)cc(C(=O)NNC(=S)Nc2ccccc2OC)c1
  A: 1; B: 3%; C: 2; D: -9%; E: .; F: 0.2; G: -7%

> CCOC(=O)c1c(N)c2cc([N+](=O)[O-])cnc2n1C
  A: -7; B: -14%; C: 10; D: 1%[15.4 µM]; E: -4.2%; F: 3.8; G: 7%

> COC(=O)NNC(=O)C1CCC(C)CC1 (stereo not given)
  A: 8&-2; B: 7%; C: 2; D: -11%[15.4 µM]; E: -0.9%&2.5%; F: 0.6; G: 14%

> O=c1cc(C(F)(F)F)[nH]c2ccc(OC(F)(F)F)cc12
  A: -15; B: 2%; C: -5; D: 11%[15.4 µM]; E: .; F: -1.3; G: -18%

> O=C(O)CSc1c2ccccc2cc2ccccc12
  A: 2; B: 7%; C: 7; D: -6%; E: 3.6%; F: ?; G: -17%

> O=C(CCCCCn1c(=S)[nH]c2cc3c(cc2c1=O)OCO3)N1CCN(c2ccccc2)CC1
  A: 9; B: 3%; C: 4; D: ?; E: 0.0%; F: 0.3; G: -1%

> CCOc1ccc(NC2=NCC(=O)N2Cc2cccs2)cc1
  A: 17; B: -21%; C: 8; D: 0%; E: 0.7%; F: 13; G: -8%

> CC(NC(=O)C1CCCN1S(=O)(=O)c1ccc2c(c1)n(C)c(=O)c(=O)n2C)c1ccccc1 (stereo not given)
  A: -15; B: 7%; C: 0; D: -8%[15.4 µM]; E: .; F: 0.3; G: 8%

> CCC(C)[C@H](NC(=O)OC(C)(C)C)c1nnc(SCc2c(C)[nH]c(=O)[nH]c2=O)o1 (stereo not given in full)
  A: 8; B: 2%; C: 1; D: 11%; E: -2.2%; F: 2.2; G: 8%

> CSc1nnc(-c2cc[n+](C)cc2)n1CCO
  A: -11; B: -1%; C: -4; D: -15%; E: -25%; F: 1.0; G: 5%

> COc1ccc(C2=NS(=O)(=O)N(C)C(C(=O)NC(C)c3ccccc3)=C2)cc1OC (stereo not given)
  A: -2&-5; B: 10%; C: 7; D: -35%[inhibitor]; E: 0.8%&-2.9%; F: -2.3; G: -7%

> Cc1cccc(C(=O)NCCCN2CCCC2=O)c1
  A: 1; B: 11%; C: -10; D: 2%; E: -1.1%; F: 12; G: 1%

> Clc1ccc(SCc2cc(-c3ccccc3)on2)cc1
  A: -9; B: 9%; C: -9; D: -4%; E: -1.6%; F: 2.7; G: 1%

> O=C(O)c1ccc(NCc2ccc(Br)cc2)cc1
  A: -7; B: 4%; C: 0; D: -12%; E: 0.7%; F: 1.8; G: -9%

> Cc1ccccc1NC(=O)OCc1cccnc1Sc1ccc(Cl)cc1
  A: 46; B: 0%; C: -3; D: 14%; E: -3.9%; F: 1.2; G: -6%

> CC(=O)c1c(C(C)=O)c(C)n(C(c2ccccc2)c2ccccc2)c1C
  A: 16; B: 5%; C: -11; D: -12%; E: -2.7%; F: 0.6; G: -6%

> CCOc1ccc(C(C)NC(=O)C2CCCC2)cc1 (stereo not given)
  A: -5; B: 6%; C: 2; D: 16%; E: 1.3%; F: 3.7; G: 2%

> CC(C)C1N(C(=O)CN2CCCCC2)CCN1S(=O)(=O)c1ccccc1 (stereo not given)
  A: 23; B: 21%; C: -8; D: ?; E: .; F: -6.1; G: 3%

> CC(OC(=O)C1CC1)C(=O)Nc1ncc(Cl)cc1Cl (stereo not given)
  A: 9; B: .; C: 27; D: 11%; E: -2.2%; F: .; G: 13%

> CC(=O)c1ccc(NC(=S)N2CCCC2)cc1
  A: 32; B: 3%; C: 3; D: -33%[inhibitor]; E: 0.0%; F: -0.6; G: -1%

Records above printed as active in Sfp PPTase inh.
mol	TRPML1 inh	Sfp PPTase inh	gsp ag	Menin-MLL FL inh
O=C(/C=C/c1ccc(Br)cc1)c1ccc(NC2=NCCCS2)cc1	13	40µM*	-83%[inhibitor]	6.6

2 compounds picked at random from those above, as already listed:
Abbreviations – A = TRPML1 inh; B = Sfp PPTase inh; C = TRPV1 PAM; D = gsp ag; E = ClpP mod; F = Menin-MLL FL inh; G = gsp antagonist
> CC(C)C1N(C(=O)CN2CCCCC2)CCN1S(=O)(=O)c1ccccc1 (stereo not given)
  A: 23; B: 21%; C: -8; D: ?; E: .; F: -6.1; G: 3%

> Clc1ccc(SCc2cc(-c3ccccc3)on2)cc1
  A: -9; B: 9%; C: -9; D: -4%; E: -1.6%; F: 2.7; G: 1%

Additional results:
Abbreviations – A = TRPML1 inh; B = Sfp PPTase inh; C = TRPV1 PAM; D = gsp ag; E = ClpP mod; F = Menin-MLL FL inh; G = gsp antagonist
> O=C(CCCn1nnnc1CN1CCOCC1)N1CCC(c2ccccc2Cl)C1 (stereo not given)
  A: -5; B: 7%; C: 22; D: 4%; E: 0.1%; F: .; G: -4%

> COc1c2c(nc3occc13)C(CC=C(C)C)(OC)C(=O)C=C2 (stereo not given)
  A: 14; B: 2%&9%; C: -9; D: -3%[15.4 µM]; E: 0.9%; F: -1.6&-1.1; G: -4%

> O=C(c1cccc(Cl)c1)N1CCN(c2ncccn2)CC1
  A: 3; B: 12%; C: -2; D: -1%; E: -17%; F: 8.5; G: 17%

> Cc1noc(C)c1CSCC(=O)OCc1nc2ccccc2c(=O)n1CC#N
  A: 27; B: -8%; C: 1; D: 5%; E: 0.0%; F: 7.2; G: -11%

> COCCC(=O)N1CCC(Oc2ccc(C(=O)N3CCCC(OC)C3)cc2)CC1 (stereo not given)
  A: 8; B: 19%; C: 9; D: -84%[inhibitor]; E: -4.3%; F: .; G: 14%

> CC(C)N1CCN(Cc2ccccc2-c2ccco2)CC1CCO (stereo not given)
  A: 23; B: 21%; C: ?; D: -18%; E: -2.5%; F: -0.1; G: 6%

> CC(C)CCOc1ccc(C(=O)N2CCCC2C(=O)O)cc1 (stereo not given)
  A: 2; B: 15%; C: 20; D: -18%[15.4 µM]; E: .; F: 0.0; G: .

> COC(=O)C(C)Sc1nc2c(c(=O)[nH]c(=O)n2C)n1CCC(C)C (stereo not given)
  A: 19; B: -8%; C: -10; D: -7%; E: -0.5%; F: -0.8; G: -5%

> Brc1ccc(OCCCCCN2CCOCC2)cc1
  A: 7; B: -16%; C: 0; D: -5%[15.4 µM]; E: .; F: -0.8; G: 17%

> CCOc1ccc(CCNC(=O)COC(=O)c2cccnc2SC)cc1OCC
  A: -2; B: .; C: -3; D: 0%; E: 1.8%; F: .; G: -11%

> CCc1ccc(C(C#N)=CC=Cc2ccccc2)cc1
  A: -4; B: .; C: .; D: 8%; E: -14%; F: .; G: .

> Cn1c(=O)c2c(nc(N3CCOCC3)n2C/C=C/c2ccccc2)n(C)c1=O
  A: 15; B: -15%; C: 6; D: -11%; E: .; F: -1.7; G: 0%

> CC(c1ccccc1)C1NC(C(=O)O)CS1 (stereo not given)
  A: -14; B: -26%; C: .; D: -17%; E: -0.4%; F: 6.0; G: 11%

> COC(=O)c1ccccc1NC(=O)CSc1[nH]c(=O)cc(C)c1C#N
  A: -6; B: 20%; C: 7; D: 5%[15.4 µM]; E: .; F: ?; G: ?

> O=C(COC(=O)c1ccc(Cl)nc1)Nc1cc(S(=O)(=O)N2CCOCC2)ccc1Cl
  A: -13; B: .; C: .; D: 2%; E: -1.9%; F: .; G: 0%

> CC1CCN(Cc2nnnn2CCCC(=O)NCCN2CCOCC2)CC1
  A: -6; B: 18%; C: 14; D: 5%; E: -2.2%; F: .; G: 4%

> COc1ccc(COn2nnc3ccc(S(=O)(=O)N4CCOCC4)cc32)cc1F
  A: -15; B: .; C: 2; D: 7%[15.4 µM]; E: .; F: .; G: 14%

> COc1cccc2c(=O)c3cccc(N)c3[nH]c12
  A: -11; B: 22µM*; C: 1; D: ?; E: -4.5%; F: 2.8; G: ?

> O=C(CN1C(=O)C2CCCCC2C1=O)OCc1nnc(-c2ccccc2)o1 (stereo not given)
  A: 14; B: -7%; C: 12; D: -1%[15.4 µM]; E: 3.1%; F: -4.4; G: -3%

> COc1cccc(C(=O)NC2CC3CCCC(C2)N3Cc2ccc(F)cc2)c1 (stereo not given)
  A: -12; B: .; C: .; D: 20%; E: -3.9%; F: .; G: .

> O=C(Nc1ccccc1N1CCOCC1)C1CCN(S(=O)(=O)c2ccccc2F)CC1
  A: 17; B: 10%; C: -2; D: 2%; E: 7.8%; F: 0.6; G: 4%

Assay outcomes deposited in PubChem BioAssay by National Center for Advancing Translational Sciences (NCATS).
